Tgondii IFNg – T. gondii growth inhibition under IFN-gamma; Toxoplasma gondii growth in IFN-gamma-treated host cells; stronger effect = lower value; reference of the scale not given here; activity change, negative = inhibition, %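 (about 20 µM by stock and volumes)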; 3.8% of 69,000 active; AID 1259416;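 active = below -70%; inconclusive = fit judged invalid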;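 note: host cells are HeLa cells infected with Toxoplasma gondii; parasite growth read as luciferase light; one replicate is shown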
* = called active by the depositor; u = inconclusive. Only part of the results is shown; rates above refer to the full screens.

SMILES	Tgondii IFNg
CC(=O)NCCC1CCCCN1C(=O)Nc1ccc(Oc2ccccc2)cc1 (stereo not drawn)	-2
Cc1nc(NC(=O)c2cnccn2)ccc1Br	455
CO[C@H]1CC[C@@H]2CCN(C)C(=O)[C@H](C)N(C)C(=O)c3cccc(C#N)c3OC[C@H]1O2	64
CCOc1ccccc1CN(CC)C(=O)c1cnn2cc(C)cnc12	10
Nc1ncc(C(=O)Nc2cccc(F)c2)c(C(F)(F)F)n1	-31
COc1cccc(CNC(=O)Nc2ccc(-c3nc(-c4ccccc4)co3)cc2)c1	72
CCN(CC)CCCNC(=O)c1csc(Nc2ccc(C)cc2)n1	375
CCN1C(=O)CCc2cc(NC(=O)c3ccc(F)cc3)ccc21	-26
O=C(C[C@@H]1CC[C@@H]2[C@H](COC[C@H](O)CN2C(=O)Nc2ccc(Cl)cc2)O1)NCC1CCCCC1	-26
O=C(Nc1ccc(-c2nc(-c3ccccc3)co2)cc1)c1cccc(Cl)c1	11
COCCN1CCOCC12CCN(CC(C)(C)O)CC2	2
CCN1C[C@@H]2CCN(C(=O)C3CCCO3)CC[C@H]2S1(=O)=O (stereo partly drawn)	11
O=C(CCc1ccncc1)N(Cc1ccc2c(c1)OCO2)C1CCCCC1	3
CN(C)C(=O)c1ccc(-c2ccc(C3[C@@H]4CN(C(=O)c5ccccn5)C[C@H]3N4)cc2)cc1 (stereo partly drawn)	11
CC=Cc1ccc2n(c1=O)C[C@H]1[C@H](CO)[C@@H](C(=O)NCC(F)(F)F)N(C(=O)c3cccnc3)[C@@H]21 (mixture of isomers)	-3
Cc1ccc(C(=O)N2CCC(Cc3cccc(C(=O)O)c3)CC2)c(=O)n1C	2
CCn1c(C2CCN(C(=O)c3sc(C(C)C)nc3C)CC2)n[nH]c1=O	7
Cc1ccc(S(=O)(=O)N2CCC3(CC2)CN(c2ccccc2)C3=O)cc1	86
CC(C)c1cc(CN(C)C(=O)CCc2nc3ccccc3[nH]c2=O)on1	13
Cc1ccc(-c2ccccc2[C@H]2[C@@H](CO)N(S(C)(=O)=O)[C@H]2C#N)cc1	23
Cc1cncc(C(=O)Nc2ccc(NC(=O)c3ccc(C)o3)cc2)c1	-6
Cc1noc(C)c1CN1CCc2cc(C(=O)NC(C)C)c(N(C)C)nc2CC1	-33
O=C(CCC1Nc2c3ccccc3nc(=S)n2C1=O)NCc1ccc(Cl)cc1 (stereo not drawn)	0
Cc1ccccc1CNC(=O)N1CC[C@H]2CN(CC(=O)N(C)C)S(=O)(=O)[C@@H]2CC1	-6
O=C1CO[C@H]2CN(c3ncc(F)cn3)C[C@@H]2N1CC1CC1	-52
COCC(=O)N1[C@H](CO)[C@H](c2ccccc2-c2ccccc2F)[C@@H]1C#N	-31
CO[C@H]1CN(C)C(=O)c2cc(NC(=O)Nc3cccc(Cl)c3)ccc2OC[C@H](C)N(C(=O)Nc2c(C)noc2C)C[C@H]1C	u
COc1ccc(C)cc1Nc1nc(-c2nnc(-c3cccc(C)c3)o2)nc2ccccc12	59
CN1CC[C@@]2(C(=O)N3CCCC3)CCN(S(=O)(=O)c3cccc(F)c3)CC[C@H]12	7
CNC(=O)c1ccccc1Nc1nc(Nc2ccc3c(c2OC)CCC[C@H](N2CCN(CCO)CC2)C3)ncc1Cl	-75*
O=C(Nc1cnccn1)[C@H]1C[C@H]2CCN(Cc3ccco3)C[C@H]2O1	5
c1cncc(-c2noc(C3CCCN(C4CCC5(CCNCC5)CC4)C3)n2)c1 (stereo not drawn)	-6
COc1cc(C(=O)N2CCc3c([nH]c4ccccc34)C2c2ccc(Cl)cc2)cc(OC)c1OC (stereo not drawn)	1
O=C(NCCN1CCN(c2ccccc2)CC1)c1cccc(Br)c1	6
Cc1nc(N2CCCC2)nc2c1CCN(c1ncccn1)CC2	353
Cc1nn(-c2ccccc2)c2nc(-c3ccncc3)cc(C(F)(F)F)c12	7
CNC(=O)c1nc(CN2CCOC(Cc3ccc(F)cc3)C2)no1 (stereo not drawn)	-10
Cc1ccc2c(c1C)-n1cccc1C1(CCN(S(=O)(=O)c3cccc(Cl)c3C)CC1)N2	-2
O=S1(=O)CC(O)C(NCc2cccnc2)C1 (stereo not drawn)	-8
CN(C)C(=O)[C@@]12CCCN(c3ncccn3)[C@H]1CN(Cc1ccc(Cl)cc1)C2	-4
CO[C@H]1CC[C@H]2CCN(C)C(=O)[C@@H](C)CN(C)C(=O)c3cc(C#N)ccc3OC[C@H]1O2	-11
O=C(CN1CCOCC1)Nc1c(-c2ccccc2)c2cc(Br)ccc2[nH]c1=O	22
O=C(CN1CCCN(c2ncc(C(F)(F)F)cc2Cl)CC1)Nc1c(F)cccc1F	45
CCCNC(=O)c1cc2ccc(-c3ccc(C(F)(F)F)cc3)cn2c1-c1cocn1	-1
COCC(NC(=O)Cc1cccnc1)c1ccnn1C (stereo not drawn)	-5
CCCNC(=O)N1[C@H](C#N)[C@@H](c2ccccc2-c2cccc(C)c2)[C@@H]1CO	22
O=C(Nc1cccc(F)c1)C1CC12CCN(S(=O)(=O)c1ccccc1)C2 (stereo not drawn)	-30
Cc1ccc(-c2ccccc2[C@H]2[C@@H](C#N)N(c3ncc(-c4ccccc4)s3)[C@@H]2CO)cc1	-78*
COc1ccc(C(C(=O)NC2CCCC2)N(C(=O)c2ccoc2C)c2ccc(C)cc2)cc1 (stereo not drawn)	-3
CN(C(=O)c1ccc(NC(=O)c2ccco2)cc1)C1CCCCC1	42
COc1ccc(-c2csc(NC(=O)Cn3cc(C)cn3)n2)cc1OC	39
CC(C)n1cnc2c(N3CCCC3)nc(C3CCN(C(=O)c4ccco4)CC3)cc21	-10
O=C(Nc1cc(Cl)c(-n2cccc2)cc1Cl)c1ccc(Cl)cc1	45
CCc1sc(C(=O)O)cc1-c1ccc(C(N)=O)cc1	2
O=S(=O)(CCN1CCOCC1)c1ccc(Cl)cc1	87
COCC1CC2(CCN(Cc3nc(C)cs3)CC2)CO1 (stereo not drawn)	-8
O=C(CCc1ccccc1)N1CCC(c2nnc3n2CCCCC3)CC1	-30
Cc1ccn2cc(C(=O)N3CCCC(c4ncccc4C(=O)N4CCOCC4)C3)nc2c1 (stereo not drawn)	85
Cc1nc(-c2ccc(Cl)cc2)sc1CCNS(=O)(=O)c1cc(F)ccc1F	61
O=C(CC1N=C2c3ccccc3N=C(SCc3ccccc3F)N2C1=O)NCc1ccco1 (stereo not drawn)	13

Sorted by molar mass (lowest first): some entries from above.
SMILES	Tgondii IFNg
COCC(NC(=O)Cc1cccnc1)c1ccnn1C (stereo not drawn)	-5
CCc1sc(C(=O)O)cc1-c1ccc(C(N)=O)cc1	2
O=S(=O)(CCN1CCOCC1)c1ccc(Cl)cc1	87
CN(C(=O)c1ccc(NC(=O)c2ccco2)cc1)C1CCCCC1	42
O=C(CCc1ccccc1)N1CCC(c2nnc3n2CCCCC3)CC1	-30
CCCNC(=O)N1[C@H](C#N)[C@@H](c2ccccc2-c2cccc(C)c2)[C@@H]1CO	22
O=C(Nc1cc(Cl)c(-n2cccc2)cc1Cl)c1ccc(Cl)cc1	45
O=C(Nc1cccc(F)c1)C1CC12CCN(S(=O)(=O)c1ccccc1)C2 (stereo not drawn)	-30
CC(C)n1cnc2c(N3CCCC3)nc(C3CCN(C(=O)c4ccco4)CC3)cc21	-10
CCCNC(=O)c1cc2ccc(-c3ccc(C(F)(F)F)cc3)cn2c1-c1cocn1	-1
Cc1nc(-c2ccc(Cl)cc2)sc1CCNS(=O)(=O)c1cc(F)ccc1F	61
Cc1ccn2cc(C(=O)N3CCCC(c4ncccc4C(=O)N4CCOCC4)C3)nc2c1 (stereo not drawn)	85
O=C(CN1CCOCC1)Nc1c(-c2ccccc2)c2cc(Br)ccc2[nH]c1=O	22
COc1ccc(C(C(=O)NC2CCCC2)N(C(=O)c2ccoc2C)c2ccc(C)cc2)cc1 (stereo not drawn)	-3
O=C(CN1CCCN(c2ncc(C(F)(F)F)cc2Cl)CC1)Nc1c(F)cccc1F	45
O=C(CC1N=C2c3ccccc3N=C(SCc3ccccc3F)N2C1=O)NCc1ccco1 (stereo not drawn)	13

Remaining list, next part
SMILES	Tgondii IFNg
COc1cc(C(=O)N2CCCC3(CC2)CN(C)C(=O)O3)ccn1 (stereo not drawn)	2
COc1ccc(C2(NC(=O)c3cc(C(C)(C)C)[nH]n3)CCCCC2)cc1	-27
CCOc1ccccc1NC(=O)N1CCCCC1CCn1cccn1 (stereo not drawn)	9
Cc1ccc(C)c(-c2coc(-c3ccc(NC(=O)NCc4cccc(F)c4)cc3)n2)c1	6
Cc1ncsc1CCn1cnc(-c2ccccc2)c1-c1ccc(CO)o1	3
Cc1ccc(Oc2ncccc2C(N)=O)cc1	-28
c1ccc(C2CCCCN2Cc2ccc(-c3ccn[nH]3)s2)nc1 (stereo not drawn)	-40
O=C1CCC(=O)N1CCS(=O)(=O)NCc1ccccc1-n1ccnc1	-9
COc1cccc(C#Cc2ccc3c(c2)O[C@H](CN(C)C(=O)CN2CCOCC2)[C@@H](C)CN([C@@H](C)CO)S3(=O)=O)c1	-50
O=C(C[C@@H]1CC[C@@H]2[C@H](COC[C@@H](O)CN2C(=O)Cc2ccccc2)O1)NC1Cc2ccccc2C1	6
COC(=O)C[C@H]1CC[C@@H]2[C@@H](COc3ccc(NC(=O)Nc4cccc(C#N)c4)cc3C(=O)N2C)O1	-79*
Cc1ccc(CNc2ncnc3ccc(-c4ccc(CO)o4)cc23)o1	-28
COCC(=O)N1CC(=O)N2[C@H](CO)[C@H](c3ccc(C#CC4CC4)cc3)[C@H]2C1	-8
Cc1ccc(CN(CCN(C)C)C(=O)c2cccc3c2OCCO3)s1	-2
CCCN(CC)C(=O)c1cc2c(c3ccccc3n2C(C)C)n1C(=O)N(C)C	-8
Cc1cc2ncc(C(=O)NC(CCN3CCCCC3)c3ccccc3)c(N)n2n1 (stereo not drawn)	3
CCS(=O)(=O)Nc1ccc(C(=O)NCc2cnn3ccccc23)cc1	8
O=C(C[C@@H]1CC[C@H]2[C@@H](COC[C@H](O)CN2Cc2cc(F)ccc2F)O1)NCc1ccc(Oc2ccccc2)cc1	-41
COCC1CCN(c2nc(C(C)(C)C)nc3c2cnn3C)C1 (stereo not drawn)	-12
Clc1ccc(-c2nc(N3CCC(N4CCCCC4)CC3)c3ccccc3n2)cc1	-33
CC(=O)Nc1cccc(-c2ccc(S(N)(=O)=O)s2)c1	-44
Cc1ccc(NC(=O)CC(=O)N(CCO)CCO)cc1	-1
CCCN1C(=O)CCc2cc(NC(=O)CCOC)ccc21	7
C=CCN1C[C@H]2CN(Cc3ccc(C)s3)C[C@H]2C1=O	1
CCc1ccc(C(=O)N2CCC3(CC2)Nc2cc(OC)ccc2-n2cccc23)cc1	16
COc1ccccc1-c1nc(Cn2ccn3nc(-c4ccc(Cl)cc4)cc3c2=O)c(C)o1	68
COCC(C)NC(=O)C1CCN(S(=O)(=O)c2ccc(F)cc2)CC1 (stereo not drawn)	-32
O=C(O)CCSc1ccc2ccccc2c1	39
CNC(=O)c1cc(=O)n(CC(=O)Nc2cc(Cl)ccc2OC)c2ccccc12	4
CSCCCN1CCN(Cc2ccccc2C)CC1	-3
CN(Cc1nc(C2CC2)no1)C(=O)c1ccc(NC(=O)C2CCC2)cc1	-7
O=C1CCc2cc(S(=O)(=O)N3CCC(Cc4ccccc4)CC3)cc3c2N1CCC3	0
O=C(NCCc1csc(-c2ccccc2)n1)[C@H]1CSCN1C(=O)CCc1ccccc1	-1
CCCN1CCC2(CC(C(=O)NCc3cnc(C)cn3)=NO2)C1 (stereo not drawn)	-4
CC(NC(=O)CCC1NC(=O)N(C2CCCCC2)C1=O)c1ccc2c(c1)CCCC2 (stereo not drawn)	-67
Cc1oc(-c2ccc(NC(=O)c3c(F)cccc3Cl)cc2)nc1Cn1cccn1	65
O=C(Nc1ccccc1F)N1C[C@@H]2[C@H](c3ccccc31)[C@H](CO)N2C(=O)Cc1cccnc1	19
Cc1cccc(CC(=O)N2CCC(C)(C(=O)NCc3ccc(F)cc3F)CC2)c1	24
CN(C)C(=O)N1C[C@H]2COC[C@@]2(c2nnc(C3CC3)o2)C1	-53
Cc1ncc(CN2CCOC(C)(C(=O)N(C)C)C2)cn1 (stereo not drawn)	-5
O=C(NCCc1csc(-c2cccc(F)c2)n1)c1cccc(C(F)(F)F)c1	-21
C[C@H]1CN([C@@H](C)CO)C(=O)c2ccccc2-c2ccccc2CO[C@H]1CN(C)C(=O)[C@H](Cc1ccccc1)N(C)C	24
CC(OC(=O)c1cc(=O)[nH]c2ccccc12)C(=O)c1ccccc1 (stereo not drawn)	-3
COc1cccc(-c2ccc3c(c2)[C@H]2[C@H](CCN2C(=O)c2ccccn2)[C@H](CO)N3)c1	151
COc1ccc(-c2noc(-c3nnn(Cc4nc(-c5ccccc5OC)oc4C)c3C)n2)cc1	-15
COc1ccccc1-c1noc(-c2nnn(Cc3nc(-c4cccc(C)c4)oc3C)c2C)n1	-34
Fc1ccc(C2(c3noc(CCN4CCCCO4)n3)CCOC2)cc1 (stereo not drawn)	5
Cc1c(NC(=O)Cn2nc(C(F)(F)F)c3c2CCC3)c(=O)n(-c2ccccc2)n1C	-10
CC(=O)Oc1ccc(C2(C)CC(C)(C)Oc3cc(OC(C)=O)ccc32)c(OC(C)=O)c1 (stereo not drawn)	-25
CCc1nccc(CN2CCCC(c3nn(C)c(=O)n3CC)C2)n1 (stereo not drawn)	3
CCc1ncnc2c1CCN(C(=O)c1cscn1)CC2	9
C1=C(c2cccs2)OC(c2cccs2)=CC1c1cccs1	7
Cc1cnc(N2C[C@H]3OC(=O)N(CCCN4CCOCC4)[C@H]3C2)nc1N	-48
O=C(c1ccc(Cn2ccnc2)o1)N1CCc2onc(-c3ccccc3)c2C1	-31
COc1ccc(-c2nccn2Cc2ccon2)c(OC)c1	34
Cc1oc(-c2ccc(F)cc2F)nc1CN1CCN(c2ccccc2Cl)CC1	21
COc1ccccc1-n1c(=O)n(Cc2nc(-c3cccc(C)c3)oc2C)c(=O)c2c(C)cc(C)nc21	15
COc1ccc2c3c(n(C)c2c1)[C@@H](CO)N(S(C)(=O)=O)CC31CCN(Cc2cncnc2)CC1	-32
CCOc1ccc(C(=O)NCCc2csc(-c3cccc(F)c3)n2)cc1	2
NCCc1nc(NCC(c2ccccn2)N2CCOCC2)c2ccccc2n1 (stereo not drawn)	10

High-throughput results deposited in PubChem BioAssay by Broad Institute.
